# Screening results from PubChem.
# UUG fidelity: modulators of start codon recognition fidelity in yeast; S. cerevisiae UUG-firefly luciferase reporter, luminescence/redox ratio; activity score, % at 18.7 µM; actives 0.13% (n = 350,000);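 active means replicate mean at a twofold rise or more, about +100% in these data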;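 further: firefly luciferase made from a UUG start codon reports start codon fidelity; reporter light over untreated wells divided by growth signal over untreated wells; some hits fall short of that in this replicate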
# HIV Env fusion: blocks HIV Env-driven cell-cell fusion; HeLa-JRFL Env/CEM21 cell fusion, luciferase; inhibition, % at 12.3 µM; actives 1.1% (n = 360,000); AID 651610;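 active means mean replicate inhibition score of at least 50 and every replicate individually at or above 50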;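 further: 0% = plate neutral controls and 100% = maraviroc near 300 nM; one replicate is shown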
# CSC inhib: cancer stem cell inhibition | actives 1.1% (n = 300,000) | AID 2717 | inhibition, % at 7.5 µM | cancer stem cell-like cells viability, luminescence;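 active means mean at 75% or more and at least half the replicates too; tested in HMLE shEcad cells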;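 further: 0% = median of negative and 100% = median of positive control wells; the first replicate is given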
# Rce1 inhib: yeast Ras-converting enzyme inhibition; yeast membranes, quenched prenylated peptide cleavage fluorescence; Q03530; actives 0.27% (n = 290,000); calls only;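 active means fall in fluorescence gain of 50% or more versus controls, with final raw signal at or below 3038400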;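 further: plate controls were neutral control wells for no effect and wells lacking membranes for full effect; tested at 10 µM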
# PABP FP inh: PABP-poly(A) binding inhibition; P11940; PABP-poly(A) RNA binding, fluorescence polarization; inhibition, % at 35 µM; actives 1% (n = 290,000); AID 2014;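 active means 50% or more with normal probe brightness, or confirmed in later tests; about a fifth of its hits are not listed in these tables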;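 further: calls also rest on retests at 20 µM and on dose response follow-up; controls were probe without protein and protein plus probe with vehicle; some compounds called inactive have numbers as strong as hits; many hits fall short of the cut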
# Target sequence (P11940 whole entry, looked up): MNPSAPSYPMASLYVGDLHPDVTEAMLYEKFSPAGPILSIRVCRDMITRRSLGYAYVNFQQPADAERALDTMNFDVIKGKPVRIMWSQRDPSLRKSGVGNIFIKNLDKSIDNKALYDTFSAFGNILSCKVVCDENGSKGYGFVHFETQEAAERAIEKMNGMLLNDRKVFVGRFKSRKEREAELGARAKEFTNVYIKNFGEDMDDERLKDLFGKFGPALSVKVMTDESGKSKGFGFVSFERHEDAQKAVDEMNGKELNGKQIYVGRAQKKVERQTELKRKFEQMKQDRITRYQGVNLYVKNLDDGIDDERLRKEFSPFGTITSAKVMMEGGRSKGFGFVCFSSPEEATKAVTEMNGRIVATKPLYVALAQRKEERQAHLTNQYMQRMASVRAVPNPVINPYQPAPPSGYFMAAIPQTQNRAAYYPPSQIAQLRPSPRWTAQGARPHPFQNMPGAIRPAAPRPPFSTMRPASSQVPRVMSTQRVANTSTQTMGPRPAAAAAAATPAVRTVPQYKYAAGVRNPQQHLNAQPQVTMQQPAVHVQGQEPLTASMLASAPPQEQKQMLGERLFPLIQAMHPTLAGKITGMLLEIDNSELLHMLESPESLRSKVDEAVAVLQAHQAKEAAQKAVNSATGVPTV
# MT1-MMP act inh: MT1-MMP (human) activation inhibition; P50281; actives 0.061% (n = 360,000); GFP/RFP ratio change, % at 20 µM; AID 651647; HT1080 RFP-PRO-GFP cells, GFP/RFP ratio fluorescence, overnight; percent of plate control window, DMSO zero;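 active means GFP/RFP ratio change of at least 30% with cell ATP level not reduced by more than half and red fluorescence within 50% of control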; further: strong numbers were not always called active
#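 Assay system – RFP-PRO-GFP reporter HT1080 cells · Compound dosing – single dose of 20 µM compound, 1% DMSO final · Incubation – overnight compound exposure at 37 °C · Measure – GFP/RFP fluorescence ratio · Benchmarks – DMSO wells and RFP-L50D-GFP cells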
# eIF4H FP inh: inhibitors of RNA binding by human eIF4H; Q15056; eIF4H fluorescence polarization binding assay; inhibition, % at 35 µM; actives 0.94% (n = 290,000); AID 2012;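 active means 50% or more with normal probe brightness, or confirmed in later tests; about a fifth of its hits are not listed in these tables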;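 further: calls also rest on retests at 20 µM and on dose response follow-up; 0% = protein and probe with vehicle and 100% = probe without protein; strong numbers were not always called active; many hits fall short of the cut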
# eIF4H FP inh retest: second read-out of eIF4H FP inh, no call of its own (marks repeat the call); inhibition, %; compound at 20 µM; confirmation average;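 mean of two retest wells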
# PABP FP inh retest: second read-out of PABP FP inh, no call of its own (marks repeat the call); inhibition, %; compound at 20 µM; confirmation repeats;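 mean of two retest wells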
# MT1-MMP act inh RFP: also measured in MT1-MMP act inh; calls as there; RFP signal change, %; measured here: RFP expression control read;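 0 = vehicle wells; hits needed this value within 50% of zero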
# * marks the source's active call; other numbers are inactive results; i = inactive; nt = not tested or not shown; & = joins results of further samples.
SMILES,UUG fidelity,HIV Env fusion,CSC inhib,Rce1 inhib,PABP FP inh,MT1-MMP act inh,MT1-MMP act inh RFP,eIF4H FP inh,others
O=C(c1ccco1)N1CCN(c2nc(-c3ccc(F)cc3)cs2)CC1,-10,nt,10,i,4,-4,-4,-1,
COC(=O)c1ccc(OCc2cc(=O)n3ccsc3n2)cc1,nt,13,2,i,3,-4,-3,23,
COc1cccc(CNC(=O)COC(=O)c2cc(Br)c(Br)s2)c1,-19,1,10,nt,nt,-1,2,nt,
COc1ccc(Oc2nnc(-c3ccccc3)cc2C#N)cc1,7,nt,-7,i,4,-1,-3,-15,
CCc1nc2ccc(C(=O)NCCOc3ccc(OC)cc3)cn2c1N(C)Cc1nccn1C,-12,8,nt,nt,nt,6,3,nt,
COC(=O)[C@H](CCSC)NC(=O)c1cc2c(cn1)[nH]c1ccccc12,-17,-6,-3,i,-1,1,5,-9,
COc1cccc(NC(=O)COC(=O)COc2ccccc2[N+](=O)[O-])c1,-11,1,-3,i,2,-4,-1,7,
C[C@@H]1CN([C@@H](C)CO)C(=O)CCCn2nncc2CO[C@H]1CN(C)C(=O)CCC(F)(F)F,-12&-1&-6,-12,nt,nt,nt,4,11,nt,
CSc1cccc(NC(=O)c2cc(S(=O)(=O)N3CCCC3)cn2C)c1,-15,-7,-2,i,0,-5,-4,-11,
Oc1oc(-c2ccccc2Br)nc1C=Nc1ccc(Br)cn1,-15,-3,-7,i,-6,2,5,-11,
O=C(Cc1ccc(S(=O)(=O)N2CCOCC2)s1)NCCOc1ccccc1F,nt,15,-8,i,nt,2,3,nt,
O=C(c1ccccc1Oc1ccccc1)N1CCN(c2ccccc2)CC1,nt,nt,21,i,-1,3,1,-16,

# 2 compounds picked at random from those above, as already listed:
SMILES,UUG fidelity,HIV Env fusion,CSC inhib,Rce1 inhib,PABP FP inh,MT1-MMP act inh,MT1-MMP act inh RFP,eIF4H FP inh,others
O=C(c1ccco1)N1CCN(c2nc(-c3ccc(F)cc3)cs2)CC1,-10,nt,10,i,4,-4,-4,-1,
COC(=O)c1ccc(OCc2cc(=O)n3ccsc3n2)cc1,nt,13,2,i,3,-4,-3,23,

# The listing picks up with the 2 entries that preceded the break.
SMILES,UUG fidelity,HIV Env fusion,CSC inhib,Rce1 inhib,PABP FP inh,MT1-MMP act inh,MT1-MMP act inh RFP,eIF4H FP inh,others
O=C(Cc1ccc(S(=O)(=O)N2CCOCC2)s1)NCCOc1ccccc1F,nt,15,-8,i,nt,2,3,nt,
O=C(c1ccccc1Oc1ccccc1)N1CCN(c2ccccc2)CC1,nt,nt,21,i,-1,3,1,-16,
N/C(=N\OC(=O)CCC1CCCC1)c1ccc(Br)cc1,-7,7,13,i,-3,-3,0,1,
CCOC(=O)c1cc(NC(=O)c2cnccn2)cc(C(=O)OCC)c1,-23,nt,-5,i,-9,2,0,-3,
COC(=O)c1ccc(COc2ccc(-c3nnn(CC(=O)NC(C)(C)C)n3)cc2)cc1,-7,-19,-3,i,-16,-1,-2,-13,
COc1ccc(S(=O)(=O)N2CCN(c3cnccn3)CC2)cc1,1,i,7,nt,nt,-3,0,nt,
Cc1ccccc1NC(=O)N1CCN(S(=O)(=O)c2ccccc2)CC1,nt,19,4,i,-5,0,3,13,
COc1ccc(NC(=O)CCS(=O)(=O)c2cc3c(cc2C)NC(=O)CO3)cc1,-9,-2,13,i,6,-4,3,0,
COC(=O)COc1ccc(-c2nccc(-c3ccc(Br)cc3)n2)cc1,-16,0,-10,i,-3,1,-7,-7,
Cc1ccc(NC2OC(C(O)CO)C(O)C2O)cc1[N+](=O)[O-] (stereo unspecified),1,nt,-9,i,48,4,8,93*,eIF4H FP inh retest=80*;PABP FP inh retest=41
COc1ccccc1-c1nnc(SCC(=O)N2CC(C)CC(C)C2)o1 (stereo unspecified),-9,nt,-17,i,0,4,4,-4,
COc1ccc(Cc2nc3ccc(C(=O)N(C)C(C)c4ccon4)cc3o2)cc1 (stereo unspecified),21,-15,6,nt,0,0,-5,-8,
CC1CCCCC12NC(=O)N(CC(=O)Nc1ccc3c(c1)OCCCO3)C2=O (stereo unspecified),-14,nt,-15,nt,nt,1,2,nt,
O=C(N/N=C(\CC(=O)c1cccs1)C(F)(F)F)c1ccncc1,-28,3,25,i,5,-6,-2,1,
COc1ccc(/C=C/C(=O)NC(=S)Nc2ccc(S(N)(=O)=O)cc2)cc1,-15,19,-8,i,-4,-12,-5,3,
CNC(=O)c1cc2c(cn1)[nH]c1ccccc12,31,-25,-6,i,nt,3,2,nt,
COc1ccc(C(=O)CN2C(=O)C(C)(C)Oc3ccc(C(=O)N4CCCCCC4)cc32)cc1,-5,6,14,i,4,3,1,-3,
O=C(/C=C/c1ccco1)OCC(=O)N1CCCCC1,-7,nt,2,nt,nt,-3,4,nt,
O=C(NN=C1CCCC1)c1ccc(O)cc1O,-2,6,-3,i,-6,-2,1,2,
OCCNCc1cc(Br)ccc1OCc1ccccc1Cl,nt,-19,16,i,54,-2,0,-1,eIF4H FP inh retest=0;PABP FP inh retest=12
Cc1cc(NC(=O)c2cccs2)n(-c2ccccc2)n1,-21,-99,-23,i,-6,-1,-1,4,
O=C(COC(=O)c1cc(Cl)ccc1O)NCC1CCCO1 (stereo unspecified),-9,nt,4,i,nt,1,-1,nt,
O=C(Nc1ccnn1C1CCN(Cc2cccc(F)c2F)CC1)C1CCCC1,10,-1,2,i,0,2,0,-9,
CS(=O)(=O)Nc1ccc2c(c1)ncn2CCc1ccccc1,-13,13,-15,i,-2,0,-1,-14,
CSc1ncccc1C(=O)Nc1nccs1,-13,-8,-8,i,2,-3,-1,-17,
COc1ccc(C(=O)NC(CO)c2nnc(SCc3ccc(Cl)c(Cl)c3)n2C)cc1 (stereo unspecified),-2,nt,8,i,2,3,-6,-2,
CCn1c(=O)c(CCC(=O)NCCN2CCOCC2)c(C)c2c(C)nn(-c3cccc(C)c3)c21,-4,20,7,i,-3,-1,-3,-12,
Cc1cccc(C(=O)NC2CC3CCCC(C2)N3Cc2ccccc2)c1 (stereo unspecified),-7,14,-8,i,3,1,1,-10,
Cc1cc(C)nc(SC(C)CNS(=O)(=O)c2ccccc2)n1 (stereo unspecified),nt,24,-10,i,-15,1,0,-3,
CCOc1ccc(NC(=O)NCc2ccco2)cc1,-14,-10,-7,i,-10,-4,-1,2,
O=S(=O)(Cc1ccccc1)Nc1ccc(S(=O)(=O)NCC2CCCO2)cc1 (stereo unspecified),8,nt,-1,i,-5,5,3,-4,
COc1cccc(C(=O)Nc2ccc(N3CCN(S(C)(=O)=O)CC3)cc2)c1,-14,-34,-7,i,-7,-7,0,3,
Cc1ccc(N2C(=O)c3ccccc3C2Nc2ccc(S(=O)(=O)N3CCOCC3)cc2)nc1 (stereo unspecified),8,34,0,i,8,-3,2,0,
COc1ccc(NC(=O)CSc2nc3c(c(=O)n2-c2ccccc2OC)SCC3)cc1,-6,-22,10,i,-2,-4,-2,-15,
O=C(CSc1nnc(C2CC2)n1CC1CCCO1)Nc1ccc(Cl)cc1 (stereo unspecified),-19,-3,-12,nt,-3,2,0,-7,
NC(=O)CC1SC(N)=NC1=O (stereo unspecified),-19,nt,-6,i,-3,-4,3,4,
COc1ccc(/C=C2\Oc3cc(OCC(=O)N4CC(O)C[C@H]4C(=O)O)ccc3C2=O)c(OC)c1OC (stereo partly specified),-7,nt,-5,i,41,0,0,38,
Nc1cc(OC(=O)c2cccs2)nn1S(=O)(=O)c1ccccc1,-19,-25,nt,i,-4,7,-2,-8,

# Entries listed so far that contain a nitro group on carbon (2):
SMILES,UUG fidelity,HIV Env fusion,CSC inhib,Rce1 inhib,PABP FP inh,MT1-MMP act inh,MT1-MMP act inh RFP,eIF4H FP inh,others
COc1cccc(NC(=O)COC(=O)COc2ccccc2[N+](=O)[O-])c1,-11,1,-3,i,2,-4,-1,7,
Cc1ccc(NC2OC(C(O)CO)C(O)C2O)cc1[N+](=O)[O-] (stereo unspecified),1,nt,-9,i,48,4,8,93*,eIF4H FP inh retest=80*;PABP FP inh retest=41

# Returning to the listing with the 2 entries that preceded the break.
SMILES,UUG fidelity,HIV Env fusion,CSC inhib,Rce1 inhib,PABP FP inh,MT1-MMP act inh,MT1-MMP act inh RFP,eIF4H FP inh,others
COc1ccc(/C=C2\Oc3cc(OCC(=O)N4CC(O)C[C@H]4C(=O)O)ccc3C2=O)c(OC)c1OC (stereo partly specified),-7,nt,-5,i,41,0,0,38,
Nc1cc(OC(=O)c2cccs2)nn1S(=O)(=O)c1ccccc1,-19,-25,nt,i,-4,7,-2,-8,
CCN1CCN(C2=C(NS(=O)(=O)c3ccc(Br)cc3)C(=O)c3ccccc3C2=O)CC1,-13,-16,16,i,8,2,6,5,
COc1cc(NC(=O)c2cc(C)no2)cc(OC)c1OC,-12,-15,-4,i,10,5,6,8,
COc1ccc(C2=NS(=O)(=O)N(C)C(C(=O)NC3CCCCC3)=C2)cc1,-4,7,14,i,-7,10,-5,0,
O=C(CN1C(=O)NC2(CCSC2)C1=O)N1CCN(c2ccc(F)cc2)CC1 (stereo unspecified),14,nt,nt,i,30,10,1,-2,
O=C(COC(=O)c1cc([N+](=O)[O-])ccc1N1CCOCC1)Nc1ccccc1OC(F)F,nt,-6,nt,i,nt,4,-7,nt,
C=C1C(=O)[C@]23C[C@H]1CCC2[C@]1(C)CCC[C@@](C)(C(=O)O)C1C[C@@H]3O (stereo partly specified),-23,9,nt,nt,nt,-8,-17,nt,
COc1ccc(C(=O)NCC(=O)NCc2ccncc2)cc1,-8,14,-6,nt,nt,1,3,nt,
Cc1c(CCC(=O)O)c(=O)oc2cc3occ(-c4ccc(F)cc4)c3cc12,nt,-50,2,i,14,5,4,0,
Cc1ccccc1OCC(O)CN1CCN(CCN2C(=O)c3cccc4cccc(c34)C2=O)CC1 (stereo unspecified),nt,-27,25,nt,6,7,-3,-5,
CC(NC(=S)NNS(=O)(=O)c1ccc(C(C)(C)C)cc1)c1ccccc1 (stereo unspecified),nt,7,13,i,-2,4,5,-1,
CCCN(CCC)C(=O)CC(c1ccccc1)c1ccco1 (stereo unspecified),0,21,21,i,6,-3,-3,8,
